Screening data (PubChem BioAssay)
Cruzain inh Det: blocks cruzain activity in presence of Triton detergent | P25779 | purified cruzain, Z-FR-AMC fluorescence, 0.01% Triton | Potency, µM, without a hit: max response, negative = inhibition, hits mostly inhibitors | 200,000 tested, 0.43% active; active = well fitted curve in the direction sought with a large enough effect; inconclusive = small, poorly fitted or top-dose-only effect, or another doubt; inactive = no such curve, though single readings can be large; an effect the other way counts as inactive or inconclusive;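 also: plate controls were neutral wells for no effect and buffer without enzyme for full effect; nearly all actives have a fitted effect of over 40% in size; top concentration of the series not given in the record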
Target sequence (P25779 123-467 limits assumed): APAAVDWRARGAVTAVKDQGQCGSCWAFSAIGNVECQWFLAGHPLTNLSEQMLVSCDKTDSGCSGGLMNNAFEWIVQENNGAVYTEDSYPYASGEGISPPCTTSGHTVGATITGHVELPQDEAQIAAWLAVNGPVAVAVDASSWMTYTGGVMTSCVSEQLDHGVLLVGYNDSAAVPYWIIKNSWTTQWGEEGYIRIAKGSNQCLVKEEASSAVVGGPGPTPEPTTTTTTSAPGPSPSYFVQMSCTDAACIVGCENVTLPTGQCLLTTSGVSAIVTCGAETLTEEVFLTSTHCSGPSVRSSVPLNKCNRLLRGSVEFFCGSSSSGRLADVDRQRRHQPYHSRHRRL
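Purified cruzain (1.5 nM final) was preincubated with compounds for 15 min at room temperature in 100 mM sodium acetate pH 5.5, 5 mM DTT, 0.01% Triton X-100. Reaction started with 2 uM Z-FR-AMC; AMC fluorescence change over 60 s gave activity.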
LASV entry inh: Lassa virus entry inhibition. Potency, µM (series often up to 37.9 µM), for the others: at the top dose activity change, negative = inhibition, hits mostly inhibitors. AID 540256. 300,000 tested, 1.2% active. Lassa virus pseudotype entry inhibition, cell reporter; control for the full effect not named in the record; active means well fitted inhibition curve with a large enough effect; inconclusive means small, poorly fitted or top-dose-only effect, or effect the other way; inactive means flat fitted curve, though single readings scatter; tested in HEK293 cells; also: % is scaled to controls: 0 for no effect and ±100 for the full control effect; nearly all actives have a fitted effect of over 50% in size; luciferase read-out
MARV entry inh: Marburg virus entry inhibition. Marburg virus pseudotyped entry inhibition, cell reporter; control for the full effect not named in the record; about a third of the inactives were read at about 46 µM. 300,000 tested, 1.8% active. AID 540276. Potency, µM (top dose mostly 37.8 µM), for inactives: at the top dose activity change, negative = inhibition, hits mostly inhibitors; active = well fitted inhibition curve with a large enough effect; inconclusive = small, poorly fitted or top-dose-only effect, or effect the other way; inactive = flat fitted curve, though single readings scatter; tested in HEK293 cells; about a fifth of its hits are not listed in these tables; also: % is scaled to controls: 0 for no effect and ±100 for the full control effect; luciferase read-out
SARS PLpro yeast: blocks SARS-CoV papain-like protease in a yeast assay. S. cerevisiae expressing SARS-CoV PLpro, growth rescue; control for the full effect not named in the record. Potency, µM (doses to about 32.9 µM), for the others: at the top dose activity, positive = growth rescue. 330,000 tested, 0.19% active; also: 0% is about no effect; nearly all actives have a fitted effect of over 55% in size; growth read by luminescence after 48 h
2A StopGo: lowers the luciferase signal of an FMDV 2A StopGo reporter; AID 1159524; Potency, µM (highest dose often 57.9 µM), for the others: at the highest dose signal change, negative = less light; human cells with a luciferase reporter of 2A StopGo recoding; control for the full effect not named in the record; 410,000 tested, 1.2% active; active = well fitted falling curve with a large enough effect; inconclusive = small, poorly fitted or top-dose-only effect; inactive = no such curve, though single readings can be large or run the other way; tested in HEK293T cells; also: % is scaled to controls: 0 for no effect and ±100 for the full control effect; nearly all actives have a fitted effect of over 45% in size; luciferase light after 4 h
Cruzain noTriton: cruzain (T. cruzi) inhibition without detergent; Potency, µM, inactives show max response, negative = inhibition, most hits filed as inhibitors; 200,000 tested, 2.3% active; purified cruzain, Z-FR-AMC fluorescence, no detergent; P25779; AID 1476; active = well fitted curve in the direction sought with a large enough effect; inconclusive = small, poorly fitted or top-dose-only effect, or another doubt; inactive = no such curve, though single readings can be large; an effect the other way counts as inactive or inconclusive;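 also: plate controls were enzyme without inhibitor for no effect and buffer without enzyme for full effect; nearly all actives have a fitted effect of over 40% in size; top concentration of the series not given in the record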
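Purified cruzain at 1.5 nM, pre-incubated 15 min with compound at room temperature in 100 mM sodium acetate pH 5.5, 5 mM DTT, 0.00005% Triton X-100. Reaction started with 2 uM Z-FR-AMC; AMC fluorescence increase over 60 s gives rate.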
RE007 growth inh: less growth of the S. pombe RE007 Vpr strain. S. pombe RE007 Vpr strain, BacTiter-Glo ATP luminescence, 24 h; control for the full effect not named in the record. Potency, µM (doses to about 92.2 µM), inactives show at the highest dose activity change, negative = less growth. 360,000 tested, 0.21% active; active = well fitted falling curve with a large enough effect; inconclusive = small, poorly fitted or top-dose-only effect; inactive = no such curve, though single readings can be large or run the other way;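 also: % is scaled to controls: 0 for no effect and ±100 for the full control effect; nearly all actives have a fitted effect of over 50% in size; the assay follows cell death caused by Vpr and the record does not say whether a fall means rescue or toxicity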
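Fission yeast RE007 carrying one integrated HIV-1 vpr copy, seeded at OD 0.01 in PMG+AL medium with 23 nL pinned compound. Grown 24 h at 30 degrees; viability read by BacTiter-Glo luminescence after 5 min.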
NS1 function inh: influenza NS1 inhibition; S. cerevisiae slowed by influenza A NS1, growth recovery by OD600; Potency, µM (doses to about 46.1 µM), inactives show at the highest dose activity, positive = more growth; 270,000 tested, 0.4% active; AID 2326; also: actives are rising curves; nearly all actives have a fitted effect of over 50% in size
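OD600 was taken as the measure of yeast growth restored by compound in an NS1-expressing S. cerevisiae strain. Cells had been washed out of glucose medium and diluted 1:100 into galactose -URA medium, pH 6.0.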
* hit, by the source's call; ? = inconclusive; / = no result given; [ ] = remark or other dose. Unless noted, calls follow the shape of the dose curve; as a rule, active means well fitted rising curve with a large enough effect; inconclusive means small, poorly fitted or top-dose-only effect; inactive means no such curve, though single readings can be large or run the other way. Potency is read from the fitted curve at half-maximal effect.

SMILES | Cruzain inh Det | LASV entry inh | MARV entry inh | SARS PLpro yeast | 2A StopGo | Cruzain noTriton | RE007 growth inh | NS1 function inh
COc1ccc(NC(=O)Cn2c(=O)n(CC3CCCO3)c(=O)c3cc(OC)c(OC)cc32)c(OC)c1 (centres undefined) | / | / | / | 9% | -14% | / | -12% | 4%
CC(C)C(=O)N(c1ccc(F)cc1)C1C=CS(=O)(=O)C1 (centres undefined) | 4.7% | 1% | 11% | -5% | 0% | 9% | 3% | -9%
COc1ccc(/C(O)=C2/C(=O)C(=O)N(c3ccccn3)C2c2ccc(C(C)C)cc2)cc1 (centres undefined) | / | / | / | 2% | 28% | / | 6% | 8%
COc1ccc(/C(C)=N/NC(=O)c2ccccc2N)cc1 | / | 3%[46.1 µM] | ? | 0% | 30% | / | 1% | /
COC(=O)Nc1nnc(-c2ccco2)s1 | / | 23%[46.1 µM] | 0%[46.1 µM] | -1% | 9% | / | 6% | -4%
COc1cc(OC)c(C(=O)OCC(=O)NCC2CCCCC2)cc1OC | / | -5% | 8% | -7% | -18% | / | 24% | /
O=C(CCc1ccccc1)NNC(=O)Cc1ccccc1 | / | 4% | 4% | 0% | 31%[activator] | / | 0% | 5%
O=C(O)c1ccc(COc2ccccc2/C=C2\NC(=O)N(Cc3ccccc3)C2=O)cc1 | / | -14% | -20%[46.1 µM] | 0% | 0% | / | 10% | /
CCS(=O)(=O)NCCCCc1ccccc1 | 4.4% | 16% | -21%[46.1 µM] | -3% | 2% | 4% | 28% | 6%
Cc1ccc2[nH]c(=O)c(CN(Cc3ccc4c(c3)OCO4)Cc3nnnn3C3CCCC3)cc2c1 | -1.2% | 3.5µM* | ? | / | -19% | 5% | ? | 4%
Cn1c(-c2ccccc2O)cc2ccccc21 | -15% | ? | 0% | -40% | -1% | -11% | -17% | 0%
COc1cc(SC)ccc1C(=O)NCCOc1ccc(Cl)cc1 | -10% | 0% | -2% | -67% | 5% | 3% | -2% | -40%
Cc1ccccc1-c1ccc(CN2CCN(C)C(CCO)C2)cc1 (centres undefined) | / | / | / | 0% | 8% | / | -6% | -2%
COc1cc(NC(=O)CSc2nc3c(c(=O)[nH]2)CCCC3)cc(OC)c1OC | / | 0% | -8%[46.1 µM] | 2% | -14% | / | -17% | /
Cc1nn(-c2ccccc2)c2c1N(CCCC(=O)NCc1ccc(OC(C)C)cc1)C(=O)CS2 | -6.1% | ? | / | / | 0% | ? | / | /
CN1CCN(C(=O)NCC23CC4CC(CC(C4)C2)C3)CC1 | / | / | / | 6% | -1% | / | -4% | 1%
CCOc1ccc(CCNC(=O)C2CCCN(c3nn4c(=O)cc(C)nc4s3)C2)cc1 (centres undefined) | 1.9% | -5% | -20% | 4% | 11% | -5% | -7% | -11%
C=Cc1ccc(Cn2c(C(=O)O)c(CNCc3ccccc3)c3ccc(C)cc32)cc1 | -11% | ? | / | / | ? | 12% | / | /
c1ccc(-n2nnnc2NCCCN2CCOCC2)cc1 | 3.5% | -1% | ? | 2% | -5% | 5% | -3% | 5%
CC(C)(C)C(=O)Nc1ccc(C(=O)NNC(=O)Cc2ccccc2)cc1 | 4.3% | 14% | 6% | 7% | 11% | 2% | 6% | -10%
COc1ccc(C(=O)NCc2ccc(C(=O)NCC(OC)OC)cc2)cc1OC | / | ? | -1%[46.1 µM] | 3% | 5% | / | 8% | /
CCCn1c(=O)c2ccccc2n2c(SCCNCCO)nnc12 | / | / | / | 3% | -13% | / | -1% | -4%
CCOc1cc(C)c(C(C)C)cc1S(=O)(=O)n1ccc(C)n1 | 1.1% | -19% | -23% | 1% | 0% | -2% | -10% | -17%
COc1ccc(CCC2(C)OCC(CCCCO)O2)cc1 (centres undefined) | / | -16% | 13% | / | -3% | / | 16% | /
O=C(Nc1ncnc2sc3c(c12)CCCCC3)c1ccco1 | 1.9% | -2% | -4% | 3% | 1% | ? | 31% | 2%
C=CCc1c(C)nc2nc(SCC(=O)Nc3cccc(Cl)c3)nn2c1C | 0.5% | 8%[46.1 µM] | / | / | ? | 4% | / | /
O=C(O)CNC(=O)CCCn1nnc2ccccc2c1=O | / | / | / | 0% | -8% | / | 0% | 2%
COc1cc(C2C(C(=O)c3ccc(C)o3)=C(O)C(=O)N2c2cc(C)on2)cc(OC)c1OC (centres undefined) | -2.4% | / | -3% | 4% | -2% | -3% | -1% | 0%
O=C(Cc1ccccc1)n1nc(-c2ccco2)nc1SCc1ccccc1 | 6.6% | 12% | ? | -30% | 40%[activator] | -4% | 1% | -72%
Cc1cc(C)c(NC(=O)CCCN2CCOCC2)c(C)c1 | 7.1% | 2% | ? | -1% | 9% | -4% | 4% | 3%
COc1ccc(NC2CC(=O)N(CCc3ccccc3)C2=O)cc1 (centres undefined) | -3.1% | -7% | 5% | 13% | 6% | ? | -19% | 3%
CCN(CCn1cccn1)Cc1c(C(=O)N2C[C@@H](C)O[C@@H](C)C2)nc2ccc(Cl)cn12 | / | 0% | ? | 0% | -18% | / | 16% | -6%
CC1(C)C/C(=N\O)c2cc3c(nc2C1)CCCC3 | 2.8% | 2% | 0% | 4% | 9% | -7% | -6% | 0%
CN(Cc1ccccc1)c1ncnc(N)c1[N+](=O)[O-] | / | 5%[46.1 µM] | -3%[46.1 µM] | 0% | -3% | / | 27% | 0%
O=C1CC(O)(c2ccccc2)C(c2ccccc2)=C1c1ccccc1 (centres undefined) | / | 13% | ? | -25% | -18% | / | -10% | /
COc1ccc(NS(=O)(=O)CC23CCC(CC2=O)C3(C)C)cc1 (centres undefined) | 2.8% | 5% | 21% | -3% | 9% | -6% | 16% | 8%
CC(C)CNC(=O)COC(=O)Cc1ccc(Cl)cc1 | / | -13% | 13%[46.1 µM] | -1% | 10% | / | -1% | /
O=C(CN1C(=O)c2cccnc2Oc2ccc(Cl)cc21)N1CCCCCC1 | / | -26%[46.1 µM] | -14%[46.1 µM] | -8% | -12% | / | 2% | -11%
COc1ccccc1CNC(=O)c1ccc2ccccc2n1 | / | / | 5%[46.1 µM] | -7% | 27% | / | -14% | -19%
COc1ccc2[nH]c(=O)c(CN(C(=O)c3ccccn3)C3CCCCC3)cc2c1 | -0.3% | 12% | -1%[46.1 µM] | 4% | -13% | -12% | 20% | -41%
CCOC(=O)c1sc(NC(=O)c2ccc(Br)o2)cc1C | -3.6% | ? | ? | 0% | 66%[activator] | -6% | -20% | -26%
Cn1c(CC(=O)Nc2ccccc2F)nnc1SCC(=O)NC1=NCCS1 | / | 27%[46.1 µM] | -5%[46.1 µM] | 0% | -1% | / | 4% | 1%
COc1ccc(-c2csc(NC(=O)CSc3nc4ccccc4c(=O)[nH]3)n2)cc1 | / | ? | -12%[46.1 µM] | 1% | -3% | / | 0% | 16%
O=C(Nc1ccc(O)c2c(=O)cc(-c3ccccc3Cl)oc12)c1cccs1 | / | / | / | 1% | -9% | / | 2% | 5%
O=c1c2ccccc2nc(-c2ccoc2)n1-c1ccccc1Cl | 0.7% | ? | ? | 3% | ? | -4% | 7% | -4%
CC(=NCc1ccc2c(c1)OCO2)c1c(O)n(-c2ccc(C)cc2)c(=O)[nH]c1=O | / | ? | 1% | -1% | -6% | / | 6% | 5%
COc1cc(OC)cc(C(=O)NCC(c2cccs2)S(=O)(=O)c2ccc(F)c(C)c2)c1 (centres undefined) | -3.8% | 12%[46.1 µM] | / | / | -5% | 2% | / | /

Structures shown so far with an aryl thioether with sulfur outside any ring (7):
SMILES | Cruzain inh Det | LASV entry inh | MARV entry inh | SARS PLpro yeast | 2A StopGo | Cruzain noTriton | RE007 growth inh | NS1 function inh
COc1cc(SC)ccc1C(=O)NCCOc1ccc(Cl)cc1 | -10% | 0% | -2% | -67% | 5% | 3% | -2% | -40%
COc1cc(NC(=O)CSc2nc3c(c(=O)[nH]2)CCCC3)cc(OC)c1OC | / | 0% | -8%[46.1 µM] | 2% | -14% | / | -17% | /
CCCn1c(=O)c2ccccc2n2c(SCCNCCO)nnc12 | / | / | / | 3% | -13% | / | -1% | -4%
C=CCc1c(C)nc2nc(SCC(=O)Nc3cccc(Cl)c3)nn2c1C | 0.5% | 8%[46.1 µM] | / | / | ? | 4% | / | /
O=C(Cc1ccccc1)n1nc(-c2ccco2)nc1SCc1ccccc1 | 6.6% | 12% | ? | -30% | 40%[activator] | -4% | 1% | -72%
Cn1c(CC(=O)Nc2ccccc2F)nnc1SCC(=O)NC1=NCCS1 | / | 27%[46.1 µM] | -5%[46.1 µM] | 0% | -1% | / | 4% | 1%
COc1ccc(-c2csc(NC(=O)CSc3nc4ccccc4c(=O)[nH]3)n2)cc1 | / | ? | -12%[46.1 µM] | 1% | -3% | / | 0% | 16%

An unsorted share of the library; 4.7% or so of the library scored in one or more.
